VDR inhibitor: Inhibitors of the vitamin D receptor (VDR): qHTS | VDR-SRC2-3 peptide fluorescence polarization, 2 h | Potency, µM, inactives show max response, negative = inhibition, actives largely listed as inhibitors | 0.93% of 400,000 active | AID 504847, 2011; active = well fitted inhibition curve with a large enough effect; inconclusive = small, poorly fitted or top-dose-only effect, or another doubt; inactive = no such curve, though single readings can be large or run the other way; also: series mostly up to about 120 µM
Target sequence (P11473 whole entry, looked up): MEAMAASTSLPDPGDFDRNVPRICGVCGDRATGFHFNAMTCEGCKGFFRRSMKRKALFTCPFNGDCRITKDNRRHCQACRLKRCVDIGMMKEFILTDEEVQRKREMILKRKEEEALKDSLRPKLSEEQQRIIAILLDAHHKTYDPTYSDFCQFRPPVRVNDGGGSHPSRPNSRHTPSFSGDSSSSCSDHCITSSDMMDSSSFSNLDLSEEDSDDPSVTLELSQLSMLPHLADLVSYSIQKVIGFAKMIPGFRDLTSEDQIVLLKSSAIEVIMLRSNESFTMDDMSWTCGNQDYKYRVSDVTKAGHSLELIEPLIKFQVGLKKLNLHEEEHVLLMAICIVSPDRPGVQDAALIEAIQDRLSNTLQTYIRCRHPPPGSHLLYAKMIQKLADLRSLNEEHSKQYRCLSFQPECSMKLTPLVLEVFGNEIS
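FP read-out; VDR + SRC2-3 coactivator peptide; 23 nl compound by pintool; 2 h RT incubation; reagents held at 4 deg C, protected from light.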
The depositor's hits bear a star; ? = inconclusive; [ ] = another dose, or the depositor's remark. % is scaled to controls: 0 for no effect and ±100 for the full control effect; potency is read from the fitted curve at half-maximal effect.

structure,VDR inhibitor
COc1ccc([N+](=O)[O-])cc1NC(=S)NC(NC(=O)C(c1ccccc1)c1ccccc1)C(Cl)(Cl)Cl (stereo not given),-4%
CCOC(=O)C1CCCN(C(=O)CCC(=O)Nc2ccc3nc(N4CCOCC4)cc(C)c3c2)C1 (stereo not given),4%
C#CC(C)(CC)NC(=O)Cn1nnc(-c2ccc(OCc3c(F)cccc3Cl)cc2)n1 (stereo not given),16%
CC1CC(C)CN(c2ncnc3c2cnn3-c2ccc(Cl)cc2)C1 (stereo not given),-17%
CN(C)C(=O)c1ccc(NC(=O)COC(=O)C2CCN(S(=O)(=O)c3ccc4c(c3)OCCO4)CC2)cc1,-15%
O=C(COc1ccccc1)N1CCN=C1SCc1cccc(F)c1,-12%
Cc1ccc(SCC(=O)Nc2ccc(F)cc2[N+](=O)[O-])cc1C,-2%
COc1ccccc1NC(=O)C1(C)Cc2ccccc2C(=O)O1 (stereo not given),-3%
S=C1NCN(C2CCCCC2)CN1Cc1ccccc1,7%
CN1C(=O)C(=O)N(CC(=O)N2CCc3ccccc32)C1=O,12%
Cc1ccnc(N2CCC(C(=O)Nc3ccc4c(c3)CCC4)CC2)n1,-10%
O=C(Cn1ccc2ccccc2c1=O)NCCC(=O)N1CCCCC1,-2%
CC1(C)N=C(N)N=C(N)N1c1ccc(Oc2ccc(Cl)cc2)c(Cl)c1,8%
CCCCC(=O)NC(c1ccccc1OC)c1ccc2cccnc2c1O (stereo not given),-7%
COc1ccc(NC(=O)Cn2nnc(C(=O)NCc3ccc(C)cc3)c2N)cc1Cl,-5%
Fc1ccc(-c2nnn(Cc3ccc(F)cc3Cl)n2)cc1,-5%
c1ccc2nc(-c3ccncc3)ccc2c1,-1%
CCCCc1ccc(NC(=O)C2CCCO2)cc1 (stereo not given),7%
CNc1oc(/C=C/c2cccc(OC)c2)nc1C#N,?
CCOC(=O)c1c(C)[nH]c(C)c1C(=O)CSc1nc2ccccc2c(=O)n1-c1ccc(Cl)cc1,-8%
Cc1ccc2nc(SCC(=O)Nc3c(F)cccc3F)[nH]c2c1,17%
Cc1cc(C)cc(OCc2ccc(C(=O)N3N=C(C(F)F)CC3(O)C(F)F)o2)c1 (stereo not given),-8%
CCOC(CNCc1cc(C)c2[nH]c3ccccc3c2c1C)OCC,-4%
CC(C)(C)c1ccc(/C=C/C(=O)Nc2cccnc2)cc1,0%
CC(C)(C)CC(=O)Nc1ccc(-c2nnc3n2CCCCC3)cc1,34%[activator]
CC1(c2ccc(Cl)cc2)NC(=O)N(CC(=O)N2CCc3ccccc3C2)C1=O (stereo not given),6%
O=C(NC(=S)Nc1ccc2oc(=O)ccc2c1)c1cccc(Cl)c1,0%
COc1ccc(CCNC(=S)NC(=O)c2ccc(Br)cc2)cc1OC,-21%
COc1cc2[nH]c(=O)n(CCCC(=O)NC3CCCCC3)c(=O)c2cc1OC,-6%
CSc1nnc([C@@H]2CCCN2C(=O)OC(C)(C)C)o1,-7%
Cc1ccc(OCC(=O)N(Cc2ccccc2)C(C)C)c([N+](=O)[O-])n1,-4%
CC(=O)c1cccc(Nc2cc(C)nc3nc(Cc4ccccc4)nn23)c1,12%
Cc1cc(C(=O)N/N=C/c2ccc(N3CCOCC3)cc2)c(C)o1,-20%
Cc1ccc(NC(=O)/C=C/c2ccc3c(c2)OCO3)nc1,-6%
CCc1ccc(NC(=O)C(C)OC(=O)c2ccc(NS(=O)(=O)c3ccc(C)c([N+](=O)[O-])c3)cc2)cc1 (stereo not given),10%
CC(C)[C@H](NC(=O)N1c2ccccc2NC(=O)[C@@H]1C(C)C)C(=O)N1CCC(C(=O)O)CC1,-2%
Cc1cc(OCc2cc(C(=O)NCCN3CCCCC3CO)no2)cc(C)c1Cl (stereo not given),10%
Fc1ccc(CSc2nncn2NCc2ccccc2)cc1,-6%
CC(C)CNC(=O)c1cc(-c2ccc(Cl)c(Cl)c2)on1,22%
COc1cccc(-c2nnc(NC(=O)c3ccc4ncsc4c3)o2)c1,?
COCCCn1c(SCC(=O)Nc2nc3ccccc3s2)nnc1-c1ccoc1C,-8%
CNc1cc(C)nc(-n2nc(C)cc2C)n1,3%
Cc1cc(C)cc(NC(=S)Nc2ccccn2)c1,-10%
COc1ccc(OC)c2sc(N(Cc3cccnc3)C(=O)c3ccco3)nc12,-3%
COc1ccc(N2CCN(C(=O)COC(=O)c3ccc(OC(F)F)cc3)CC2)cc1,-9%
O=C(CSc1nnc(-c2ccc(S(=O)(=O)N3CCCC3)cc2)o1)NCC1CCCO1 (stereo not given),-2%
O=C(CSc1nnc(-c2ccncc2)o1)c1cccc([N+](=O)[O-])c1,-29%
O=C1[C@@H]2CSCN2C(=O)CN1CCc1cccc(F)c1,-1%
COc1cccc(C(=O)c2sc(Nc3ccc(F)c(Cl)c3)nc2N)c1,-1%
Cc1c(C(=O)NCc2ccccc2CN2CCCC2)oc2ccccc12,9%
COc1ccc(/C=C/c2nc(C#N)c(N3CCN(c4ccccc4)CC3)o2)cc1OC,-1%
Cc1ccnc(NC(=O)CCNS(=O)(=O)c2ccc(C)c(C)c2)c1,-4%
CCOC(=O)c1ccccc1NC(=O)Cn1ncc2c1-c1ccccc1OC2,1%
COc1ccc(/C=C/C(=O)c2cc(Br)ccc2OC(=O)c2ccco2)cc1OC,-1%
CCOC(=O)c1cc2c(=O)n3ccccc3nc2n(CC2CCCO2)c1=NC(=O)c1ccccc1OCC (stereo not given),10%
CN(C)c1ccc(NC(=O)CCN2C(=O)c3cccc([N+](=O)[O-])c3C2=O)cc1,-11%
CC(C)(C)c1ccc(C(=O)N2CCCC2)s1,0%
CCc1ccc(OCC(O)CNC(C)(C)C)cc1 (stereo not given),5%
CCOC(=O)c1cccnc1SCc1cc(=O)n2ccccc2n1,-3%
COc1cccc(NC(=O)C(=O)NCC2CCCN2S(=O)(=O)c2ccccc2)c1 (stereo not given),1%

Other results:
structure,VDR inhibitor
CC[C@@]12C(=O)N(c3cccc(Cl)c3)C(=O)N1[C@H](c1cccc(C)c1)[C@@H]1C(=O)N(Cc3ccccc3)C(=O)[C@@H]12,-4%
CC(NC(=O)COc1cccnc1[N+](=O)[O-])c1ccc(Cl)cc1 (stereo not given),3%
Cc1ccc2nc(-c3ccccc3)c(-c3ccccc3)nc2c1,24%
CCCCn1nnnc1SCC(=O)c1ccc(C)c(C)c1,3%
COc1ccc(CN2C(=S)NC(C)(C)CC2(C)O)cc1 (stereo not given),-14%
CCN1C(=O)/C(=C/C2=Cc3ccccc3OC2C)SC1=S (stereo not given),2%
CCOC(=O)CSc1ncnc2c1nnn2-c1ccc(F)cc1,9%
CC(C)OCCCNC(=O)c1c(N)n(/N=C/c2cccs2)c2nc3ccccc3nc12,-13%
COCc1cc(=O)n2[nH]c(C(F)(F)F)nc2n1,6%
O=C(NCc1ccccc1)C1CCN(S(=O)(=O)c2cccc3cccnc23)CC1,-15%
COCCn1c(SCC(=O)NC2(C#N)CCCCC2)nc2ccccc2c1=O,-8%
CN(C)N1C(N)=C(C#N)C(c2ccc3c(c2)OCO3)C2=C1CC(C)(C)CC2=O (stereo not given),-3%
CSc1nc2ccc(NC(=O)C3CC(=O)N(Cc4ccco4)C3)cc2s1 (stereo not given),-11%
O=C(Nc1cc(Cl)ccc1N1CCOCC1)C1CC1,0%
COc1ccc(C(C)NC(=O)c2cccc([N+](=O)[O-])c2)cc1OC (stereo not given),-31%
CCOc1c(C(N)=O)cc([N+](=O)[O-])cc1[N+](=O)[O-],-2%
Cc1cc(C)cc(NS(=O)(=O)c2ccc3c(c2)CCCN3C(=O)C2CCC2)c1,5%
CCN(CC)C(=O)C1CCN(C(=O)c2oc3ccc(C)cc3c2C)CC1,5%
CC1CCC(NC(=O)CN(C)S(=O)(=O)c2ccc3c(c2)CCC(=O)N3)CC1 (stereo not given),0%
C=CCOC(=O)C(=O)/C=C/c1ccc2c(c1)Cc1ccccc1-2,22µM*
Cc1ccccc1NS(=O)(=O)c1cc(S(C)(=O)=O)ccc1Cl,-14%
Cc1ccc(NC(=O)CSC(C)C(=O)OC(C)C(=O)NC2CCCCC2C)cc1 (stereo not given),2%
CCCOc1ccc(OCCOCCNCc2ccccc2)cc1,-27%
O=C(Cc1ccccc1[N+](=O)[O-])Nc1ccccc1C(=O)N1CCCC1,4%
COc1cccc(C(=O)N/N=C/c2cn[nH]c2-c2ccc(OC)cc2OC)c1,5%
CCOc1ccccc1NC(=O)CSc1ncnc2c1oc1ccccc12,2%
CCN(C(=O)c1cnc2ccc(C)cn2c1=O)c1ccccc1,?
COc1ccnc2c1c(=O)n(Cc1ccc(Cl)cc1Cl)c(=O)n2C,2%
CCn1c(CN2CCOCC2)nc2cc(NC(=O)c3ccccc3[N+](=O)[O-])ccc21,5%
Cc1nc(SCC(=O)NC(=O)NCc2ccccc2)nc(C)c1C,-5%

Following part
Structure,VDR inhibitor
O=C(COC(=O)c1ccccn1)NNC(=O)c1ccc(Br)cc1,28%
Fc1cccc(CSc2nc3ncccc3[nH]2)c1,-2%
COc1ccc(N2CCN(CCCNC(=O)C(=O)c3c(C)n(C)c4ccccc34)CC2)cc1,2%
COc1ccccc1/C=C\C(=O)O,0%
COCCN1Cc2cccc(C(=O)NCc3ccccn3)c2C1=O,-5%
CCC(OC(=O)c1ccco1)C(=O)NCc1ccc(OC)cc1 (stereo not given),4%
CCOc1ccc2c(c1)c(=O)c(S(=O)(=O)c1ccc(Cl)cc1)cn2Cc1ccccc1C,-6%
CCC1=C(OC(=O)N(CC)CC)N2C(=O)OC(=NCCc3c[nH]c4ccccc34)[C@]2(Cc2ccccc2)[C@H]2C1=CC[C@H]1C(=O)NC(=O)[C@H]12,-3%
CSc1ccccc1NC(=O)CN(C)Cc1ccc(Br)cc1,-21%
Cc1cc(Br)c2c(c1)=C(c1sc(N3CCCCCC3)nc1O)C(=O)N=2,-1%
CSc1ccccc1C(=O)NCc1cccnc1,9%
CC(C(=O)NCc1cccs1)n1cccc1 (stereo not given),3%
Cc1cccc(C)c1NC(=O)c1oc2c(c1C)-c1nn(Cc3ccccc3)cc1CC2,6%
COc1ccc(C(=O)Nc2ccccc2-c2nnn(CC(=O)N3CCOCC3)n2)cc1,-12%
CC[C@@H]1CC=C[C@H]2[C@H]1C(=O)N(Cc1ccccc1)[C@H]2c1ccc(C(F)(F)F)cc1,-10%
O=C(/C=C/c1ccc(Cl)c(Cl)c1)NC1=NCCS1,-22%
CC1C(=O)C(C)C(c2ccccc2F)NC1c1ccccc1F (stereo not given),-7%
O=C(C1CCN(C2CC(=O)N(c3cccc(Cl)c3)C2=O)CC1)N1CCCCCC1 (stereo not given),-1%
O=C(NCC(O)c1ccc([N+](=O)[O-])cc1)c1cccc(S(=O)(=O)N2CCOCC2)c1 (stereo not given),-19%
O=C(NCC(O)CO)c1csc(Nc2cccc3ccccc23)n1 (stereo not given),-5%
O=C(Nc1ncc(Cc2ccccc2)s1)c1cccs1,5%
Cc1onc(-c2c(Cl)cccc2Cl)c1C(=O)Nc1nccs1,16%
COCCN(C(=O)COC(=O)CCOc1cccc(C)c1)c1c(N)n(Cc2ccccc2)c(=O)[nH]c1=O,21%
Cc1ccc(-n2cnc3c(=O)[nH]cnc32)cc1[N+](=O)[O-],-14%
CC1=NOC(=O)/C1=C\c1ccc(-c2ccc(Br)cc2C(=O)O)o1,79µM*
CCCCn1c(N)c(N(CC(C)C)C(=O)CCCc2cccs2)c(=O)[nH]c1=O,6%
CC(=O)Nc1ccc(NC(=O)CCOc2ccccc2C)cc1,-9%
O=C(CN1CCN(Cc2ccccc2)CC1)N1N=CCC1c1ccccc1 (stereo not given),-10%
COc1ccc2c(c1)CCc1c(C(=O)Nc3c(C)nn(Cc4ccc(Cl)cc4)c3C)noc1-2,-3%
CCOc1cccc(C2c3[nH]c4ccccc4c3CCN2C(=O)c2ccccc2F)c1 (stereo not given),7%
O=C(Nc1ccccc1)c1ccc2c(c1)OCO2,13%
CC(C)CN1CN(Cc2ccco2)CNC1=S,17%
CSCCC(NS(=O)(=O)c1ccc(C)cc1)C(=O)NC1CCCCC1 (stereo not given),14%
CCOC(=O)c1ccc(NC(=S)N2CCSC2c2ccc(OC)cc2)cc1 (stereo not given),-3%

Records above shown as hits in VDR inhibitor:
Structure,VDR inhibitor
C=CCOC(=O)C(=O)/C=C/c1ccc2c(c1)Cc1ccccc1-2,22µM*
CC1=NOC(=O)/C1=C\c1ccc(-c2ccc(Br)cc2C(=O)O)o1,79µM*

Molecules above with a nitro group on carbon (13):
Structure,VDR inhibitor
COc1ccc([N+](=O)[O-])cc1NC(=S)NC(NC(=O)C(c1ccccc1)c1ccccc1)C(Cl)(Cl)Cl (stereo not given),-4%
Cc1ccc(SCC(=O)Nc2ccc(F)cc2[N+](=O)[O-])cc1C,-2%
Cc1ccc(OCC(=O)N(Cc2ccccc2)C(C)C)c([N+](=O)[O-])n1,-4%
CCc1ccc(NC(=O)C(C)OC(=O)c2ccc(NS(=O)(=O)c3ccc(C)c([N+](=O)[O-])c3)cc2)cc1 (stereo not given),10%
O=C(CSc1nnc(-c2ccncc2)o1)c1cccc([N+](=O)[O-])c1,-29%
CN(C)c1ccc(NC(=O)CCN2C(=O)c3cccc([N+](=O)[O-])c3C2=O)cc1,-11%
CC(NC(=O)COc1cccnc1[N+](=O)[O-])c1ccc(Cl)cc1 (stereo not given),3%
COc1ccc(C(C)NC(=O)c2cccc([N+](=O)[O-])c2)cc1OC (stereo not given),-31%
CCOc1c(C(N)=O)cc([N+](=O)[O-])cc1[N+](=O)[O-],-2%
O=C(Cc1ccccc1[N+](=O)[O-])Nc1ccccc1C(=O)N1CCCC1,4%
CCn1c(CN2CCOCC2)nc2cc(NC(=O)c3ccccc3[N+](=O)[O-])ccc21,5%
O=C(NCC(O)c1ccc([N+](=O)[O-])cc1)c1cccc(S(=O)(=O)N2CCOCC2)c1 (stereo not given),-19%
Cc1ccc(-n2cnc3c(=O)[nH]cnc32)cc1[N+](=O)[O-],-14%

Screening results deposited in PubChem by National Center for Advancing Translational Sciences (NCATS).

This is a subset, so the mix of outcomes need not match the whole.
